Screening results from PubChem BioAssay.
Ecoli growth = E. coli growth inhibition, primary screen, OD600; 330,000 tested, 0.21% active; Escherichia coli growth, 23 h; stronger effect = lower value; AID 1053175, 2014; OD600 absorbance (concentration not given with the values);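 active = OD600 absorbance below the run mean of sample wells minus 3.6 SD, in any replicate, cut at about 0.56 in these data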;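 also: stock transfer was 300 nL into about 60 µL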
HNF4A DNA FP = change in binding of human HNF4A to DNA, primary screen, biochemical, fluorescence polarization, FITC-DNA; Hepatocyte nuclear factor 4-alpha (Homo sapiens), P41235; 1 h; activity change, % at 10 µM; 360,000 tested, 0.3% active; AID 1224865, 2016; in the data active = activity change above about 30%, passing the limit was not always enough;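 also: controls were the assay level and a saturating level of protein; the project sought stronger binding though the title names inhibitors; some compounds called inactive have numbers as strong as hits; positive values seem to mean higher polarization but the record does not say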
UCH37 inh = inhibitors of human UCH37 deubiquitinase, primary screen, biochemical, Ub-AMC cleavage, fluorescence. inhibition, % (test concentration not listed). AID 588478, 2011. purified proteasome/UCH37. 330,000 tested, 0.33% active;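 active = mean of two replicates above 20%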;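 also: 0% = compound-free wells with enzyme and 100% = wells lacking proteasome; stock transfer was 100 nL into about 20 µL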
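Material: human UCH37 enzyme supplied as purified proteasome complex. Measure: % inhibition of Ub-AMC cleavage fluorescence. Medium: pH 7.4 Tris-HCl (50 mM) with ovalbumin, ATP-MgCl2, DTT. Times: 30 min preincubation with enzyme, 25 min cleavage at room temperature. Detection: AMC fluorescence intensity at 355/460 nm.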
LANA-H2A inh = blockers of LANA interaction with H2A/H2B – biochemical, FP readout, HTS, primary screen; inhibition, % (concentration not given with the values); 320,000 tested, 0.6% active; cell-free LANA-H2A/H2B peptide, fluorescence polarization; Protein LANA1 (Human herpesvirus 8 type P (isolate GK18)), Q9QR71; in the data active = inhibition mostly above about 10%, no sharp cut-off; inactive = mostly below about 6.7%;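 also: stock transfer was 7.5 nL into about 10 µL; 0% = median of vehicle wells and 100% = median of positive control wells; one replicate is shown; the record names a cut of 25% in any replicate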
Target sequence (Q9QR71 whole entry, looked up): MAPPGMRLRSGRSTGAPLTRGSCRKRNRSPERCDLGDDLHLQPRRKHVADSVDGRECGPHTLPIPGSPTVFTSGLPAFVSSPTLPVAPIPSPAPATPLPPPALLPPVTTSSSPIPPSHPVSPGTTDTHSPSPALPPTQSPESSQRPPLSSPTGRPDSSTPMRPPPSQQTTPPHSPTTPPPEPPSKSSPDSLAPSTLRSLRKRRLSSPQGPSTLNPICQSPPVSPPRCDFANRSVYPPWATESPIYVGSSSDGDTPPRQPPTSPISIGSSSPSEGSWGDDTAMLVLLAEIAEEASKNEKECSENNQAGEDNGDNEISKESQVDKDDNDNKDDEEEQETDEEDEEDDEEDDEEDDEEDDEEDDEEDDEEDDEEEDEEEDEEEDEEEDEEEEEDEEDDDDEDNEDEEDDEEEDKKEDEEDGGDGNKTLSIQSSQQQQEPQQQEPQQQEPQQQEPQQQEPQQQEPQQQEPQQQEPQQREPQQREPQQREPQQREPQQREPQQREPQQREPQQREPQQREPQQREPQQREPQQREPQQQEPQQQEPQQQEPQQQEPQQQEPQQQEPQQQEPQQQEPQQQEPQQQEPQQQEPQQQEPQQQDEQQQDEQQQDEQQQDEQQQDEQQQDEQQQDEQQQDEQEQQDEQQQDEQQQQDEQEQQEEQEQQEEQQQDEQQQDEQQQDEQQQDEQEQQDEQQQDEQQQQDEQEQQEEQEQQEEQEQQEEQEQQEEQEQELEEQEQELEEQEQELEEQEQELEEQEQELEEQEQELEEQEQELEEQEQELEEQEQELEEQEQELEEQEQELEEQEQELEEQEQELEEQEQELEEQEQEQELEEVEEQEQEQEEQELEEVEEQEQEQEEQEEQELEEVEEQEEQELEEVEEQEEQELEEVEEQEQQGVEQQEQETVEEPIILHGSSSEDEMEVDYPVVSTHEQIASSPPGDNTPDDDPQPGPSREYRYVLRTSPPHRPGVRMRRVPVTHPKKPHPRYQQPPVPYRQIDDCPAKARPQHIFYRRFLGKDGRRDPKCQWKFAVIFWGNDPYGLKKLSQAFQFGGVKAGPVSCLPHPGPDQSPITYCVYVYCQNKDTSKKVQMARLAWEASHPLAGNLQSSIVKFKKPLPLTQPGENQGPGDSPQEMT
ALR H2O2 inh = inhibitors of human ALR sulfhydryl oxidase, primary screen, biochemical, H2O2 detection, HRP-luminol luminescence, single point; FAD-linked sulfhydryl oxidase ALR (Homo sapiens), P55789; purified ALR, DTT oxidation; inhibition, % (concentration not given with the values); 290,000 tested, 3.8% active; AID 485317, 2010;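 active = mean and each replicate at 75% or more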;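 also: stock transfer was 7.5 nL into about 7.5 µL; 0% = neutral wells and 100% = wells with inactivated enzyme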
FGF22 binding = binders of human FGF22 protein, primary screen, FGF22 synaptogenesis inhibitor project, biophysical, thermal shift, single point | recombinant FGF22 thermal shift, SYPRO orange fluorescence; percent of sucrose octasulfate shift, DMSO zero | 340,000 tested, 1.5% active | Fibroblast growth factor 22 (Homo sapiens), Q9HCT0 | calls only at 9.99 µM;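 active = melting point raised past a set limit in the mean and every replicate; three in four hits are not shown here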
B2AR ag = beta2AR agonists driving receptor internalization, primary screen, cell-based, FAP fluorogen, flow cytometry; Beta-2 adrenergic receptor (Homo sapiens), P07550; Am2.2-beta2AR cells; reference of the scale not given here; response, % (test concentration not listed); 340,000 tested, 0.43% active; AID 504454, 2011;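 active = response above a set limit, near 3 SD of response in nonfluorescent compounds, cut at about 42% in these data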;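 also: stock transfer was 100 nL into about 11 µL; a reference agonist was the positive control; negative values mostly stem from fluorescent compounds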
The depositor's hits bear a star; i = inactive; nt = not tested or not shown.

SMILES	Ecoli growth	HNF4A DNA FP	UCH37 inh	LANA-H2A inh	ALR H2O2 inh	FGF22 binding	B2AR ag
C[C@@H]1CN([C@@H](C)CO)C(=O)Cc2cc(NC(=O)Nc3ccc(C(F)(F)F)cc3)ccc2O[C@@H]1CN(C)S(=O)(=O)c1ccc(Cl)cc1	nt	6.8	1.8	-0.5	-2	i	1
CC1=C(C(=O)Nc2ccc(C(=O)NCCCN3CCCCC3)cc2)SCCO1	0.66	0.1	3.4	4.5	-5	i	0
CCOc1cccc(OCCOc2ccccc2[N+](=O)[O-])c1	0.75	0.0	5.4	1.3	-6	nt	-5
CC(=O)N(c1ccc(Cl)cc1)c1cn(C(C)=O)c2ccccc12	0.7	-0.5	1.7	3.1	-1	i	3
COc1ccc(NS(=O)(=O)c2ccc(C)c(C(=O)NCC(c3ccco3)N(C)C)c2)cc1 (stereo unspecified)	0.67	-1.1	-6.0	-2.3	-8	i	1
O=C(CN1CCN(c2ccccn2)CC1)Nc1ccc(F)cc1F	0.61	2.0	5.9	1.8	5	i	-8
Cc1ccc(NC(=O)COC(=O)c2ccc(S(=O)(=O)NCc3ccco3)cc2)cc1	0.63	0.2	0.4	-2.9	-4	i	13
O=C(NC1CCCCCC1)C1CCCN(S(=O)(=O)c2cccs2)C1 (stereo unspecified)	0.78	1.9	0.4	3.3	nt	nt	2
COC(=O)c1ccccc1NC(=O)Nc1ccc(Br)cn1	0.71	2.3	1.1	1.4	5	i	-2
O=S(=O)(Nc1nc2cc3c(cc2nc1Cl)OCCO3)c1ccccc1	0.66	-0.9	-399	-2.0	-3	i	3
CC(C)CN(CC(C)C)C(=O)COc1ccccc1C(N)=O	0.7	-4.4	5.3	0.6	-5	i	1
CCCCOc1ccc(N(CC(=O)NCCOC)C(=O)CCC(=O)Nc2ccccn2)cc1	0.7	-1.5	-0.5	2.2	-2	i	-15
CC(=O)c1cccc(OCC(=O)OCC(=O)Nc2cc(S(=O)(=O)N3CCCCC3)ccc2C)c1	0.65	-0.7	0.4	2.2	-2	i	4
O=C1c2ccccc2C(Nc2ccc3c(c2)OCCO3)N1Cc1ccccc1 (stereo unspecified)	0.78	-1.1	-1.6	0.5	98*	nt	7
CCCn1cnc2cc(NCc3ccccn3)ccc21	0.72	-1.2	-0.2	2.4	nt	i	-5
C=CCCN(Cc1ccccc1)S(=O)(=O)c1cc(Br)ccc1Br	0.65	0.2	-0.2	-5.5	-1	i	4
Cc1cc(C)n(C(C)CC(=O)Nc2ccc3c(c2)OCO3)n1 (stereo unspecified)	0.72	4.6	1.3	-3.4	-16	i	-3
COc1ccc(-c2sc3cc4c(cc3c2C#CCO)OCO4)cc1	0.71	-5.6	-2.6	8.2	0	nt	20
O=C1Nc2cc(C(=O)N3CCOCC3)ccc2SC1N1CCOCC1 (stereo unspecified)	0.7	-5.9	1.5	0.7	-3	nt	-11
CCCCNc1nc(N)nc(-c2cc(Cl)ccc2O)n1	nt	-0.1	-21	-0.8	-3	nt	6
COc1ccc(-c2ccc(SCC(=O)N3CC(=O)Nc4ccccc43)nn2)cc1	0.69	1.5	-0.9	-0.7	19	i	-5
COc1cc(C(=O)N2CCN(C3CCCCC3)CC2)cc(OC)c1OC	0.71	-0.1	2.2	1.7	-3	i	-1
COc1ccc(NC(=O)CN(C2CCCCC2)S(C)(=O)=O)cc1Cl	0.7	-0.4	5.1	-4.3	-17	nt	4
O=C(CCCNS(=O)(=O)c1cccc2nsnc12)NCc1ccc(Cl)cc1	0.69	-1.3	2.0	0.6	-15	nt	2
CC(=O)NCc1ccc(S(=O)(=O)N/N=C/c2ccc(Br)cc2)cc1	nt	-1.2	nt	-4.2	7	i	1

Reprinted from the results shown for reference:
SMILES	Ecoli growth	HNF4A DNA FP	UCH37 inh	LANA-H2A inh	ALR H2O2 inh	FGF22 binding	B2AR ag
O=C1c2ccccc2C(Nc2ccc3c(c2)OCCO3)N1Cc1ccccc1 (stereo unspecified)	0.78	-1.1	-1.6	0.5	98*	nt	7
CCCn1cnc2cc(NCc3ccccn3)ccc21	0.72	-1.2	-0.2	2.4	nt	i	-5
C=CCCN(Cc1ccccc1)S(=O)(=O)c1cc(Br)ccc1Br	0.65	0.2	-0.2	-5.5	-1	i	4

Next section
SMILES	Ecoli growth	HNF4A DNA FP	UCH37 inh	LANA-H2A inh	ALR H2O2 inh	FGF22 binding	B2AR ag
O=c1c2[nH]c3cccc(Cl)c3c2ncn1Cc1ccncc1	0.76	1.6	-0.5	-4.3	2	nt	10
Cc1cc(C(=O)OCC(=O)Nc2ccccc2C)c(C)o1	0.69	3.5	0.8	-0.5	-2	i	1
CCN1C(=O)[C@@H]2[C@@H](c3ccc(SC4CCCCC4)c(OC)c3)N3CCC[C@@]3(C(=O)OC)[C@@H]2C1=O	nt	-0.8	1.7	5.1	nt	i	-3
CC(C)Cn1c(SC(C)C(=O)NC2CC2)nnc1-c1ccccc1F (stereo unspecified)	0.6	-1.6	1.8	-0.4	-1	i	4
O=C(COc1ccccc1[N+](=O)[O-])NC1CC1	0.66	-0.6	2.7	0.3	-2	nt	1
CCCCn1c(N)c(N(CCOC)C(=O)C2CC(=O)N(Cc3ccc(C)cc3)C2)c(=O)[nH]c1=O (stereo unspecified)	0.68	0.1	3.0	-0.1	-4	i	-7
COc1ccc(S(=O)(=O)NNC(=O)c2sccc2-n2cccc2)cc1	0.66	31*	-0.1	1.8	15	i	-2
Cc1nc(SCC(=O)Nc2c(C)n(C)n(-c3ccccc3)c2=O)c(C#N)c(C)c1C	0.7	-1.5	1.6	1.0	nt	i	-5
CCOc1ccc(NC(=O)COC(=O)Cn2cnnn2)cc1OCC	0.69	2.7	0.9	5.1	-4	i	-6
CN(Cc1c(C(=O)N/N=C/c2c(F)cccc2Cl)nnn1-c1nonc1N)c1ccccc1	nt	3.9	nt	-0.6	0	i	10
Nc1ncc2c(n1)CCN(c1ccc([N+](=O)[O-])cc1)C2	0.68	-2.9	7.6	2.9	33	i	9
COc1ccc(CC(=O)NNC2=Nc3cccc4cccc2c34)cc1OC	0.66	1.1	3.3	1.9	nt	i	15
O=C(OCC1OC(n2cnc3c(N(C(=O)c4ccccc4)C(=O)c4ccccc4)ncnc32)C(O)C1F)c1ccccc1 (stereo unspecified)	0.64	2.6	2.9	nt	nt	i	-1
COc1ccc(/C=C2\Sc3ccc(C(=O)NCCN4CCCCCC4)cc3N(C)C2=O)cc1	0.72	21	3.6	-0.1	-16	i	7
Cc1cc(-c2ccccc2)n2ncc(C#N)c2n1	0.77	-2.8	-191	-1.4	0	i	22
CC1CCC(NC(=O)CCCCn2c(=O)[nH]c3ccsc3c2=O)CC1 (stereo unspecified)	0.64	0.6	3.8	-3.3	2	i	-13
O=C(CCc1nnc(-c2ccc3c(c2)OCO3)o1)NCCc1ccccc1F	0.66	-1.8	-0.5	1.1	-5	i	7
Cc1cc(-n2c(C)cc(C(=O)CSc3nnnn3-c3ccc(Cl)cc3)c2C)no1	0.71	0.2	0.6	nt	nt	nt	0
CCN1C(=O)N[C@@H](CCc2ccccc2)C(C(C)=O)=C1C	nt	0.3	0.7	6.2	-13	i	0
COc1ccccc1NC(=S)NC(NC(=O)c1ccco1)C(Cl)(Cl)Cl (stereo unspecified)	0.64	-0.3	-19	-2.2	2	i	2
COc1cccc(C2c3c(oc4ccccc4c3=O)C(=O)N2CCCN(C)C)c1OC (stereo unspecified)	nt	-1.9	0.6	1.5	-1	nt	0
COc1ccc(NC(=O)CN(C)CC(=O)Nc2ccc(Cl)cc2F)cc1	0.66	2.6	1.2	-6.0	-18	nt	3
COc1ccc(/C=C/C(=O)Nc2ccc3c(c2)OCCO3)cc1OC	0.67	2.2	8.6	-1.6	-22	nt	3
O=C(C1CC1)N1CCc2cc(Br)cc(S(=O)(=O)N3CCCCCC3)c21	0.69	1.5	0.7	0.9	-26	nt	-13
COc1ccc(OC)c(S(=O)(=O)Nc2c(NC3CCCCC3)c3ccccc3oc2=O)c1	0.66	0.6	4.7	nt	60	nt	-5
The results go on:
SMILES	Ecoli growth	HNF4A DNA FP	UCH37 inh	LANA-H2A inh	ALR H2O2 inh	FGF22 binding	B2AR ag
COc1ccccc1C(=O)Nc1ccc2c(c1)n(C)c(=O)n2C	0.68	-1.4	4.5	1.3	-10	i	4
CCOc1ccc(CN2CCNC(=O)C2CC(=O)NCC2CCOCC2)cc1 (stereo unspecified)	0.73	-0.2	5.3	3.1	-6	i	0
N#Cc1ccc(CN2CCN(C(=O)CC(NC(=O)c3ccccc3)c3ccccc3)CC2)cc1 (stereo unspecified)	0.71	-1.4	1.2	4.3	nt	i	3
COc1ccc(C2C(C(=O)c3ccco3)=C(O)C(=O)N2Cc2cccnc2)cc1OC (stereo unspecified)	0.68	-0.2	12	4.3	-8	nt	10
CN1CCN(NC(=O)CN2C(=O)/C(=C/c3ccccc3Cl)SC2=S)CC1	0.62	2.9	7.0	3.2	99*	i	-8
Cc1ccc(C(=O)c2cn[nH]c2-c2cc(Cl)ccc2O)cc1	0.67	4.4	3.8	-9.7	19	nt	-6
O=C(NCCCN1CCOCC1)c1ccc(/C=C2\Oc3ccccc3N(Cc3ccccc3F)C2=O)cc1	0.64	-5.7	i	0.4	nt	i	25
O=C(Nc1ccc(Cl)cc1F)C1CC1c1ccccc1 (stereo unspecified)	0.67	2.7	0.0	6.5	2	i	0
CCOC(=O)Cc1[nH]nc2c1C(Cc1ccccc1)C(C#N)=C(N)O2 (stereo unspecified)	0.69	5.1	2.5	-12	48	i	0
Cc1cc(NC(=O)c2ccc3nc(-c4ccccc4)c(-c4ccccc4)nc3c2)no1	0.72	-0.1	-6.9	-3.4	5	nt	3
Cc1ccc(NC(=O)CCNC(=O)c2ccc(Br)cc2)nc1	0.72	2.1	3.0	-2.9	-3	i	0
COc1cccc(NC(=O)CN2C(=O)c3cccnc3Oc3ccc(Cl)cc32)c1	0.71	1.1	-3.1	-0.5	-20	i	-5
CCN(CC1CCCN(CCc2cccc(OC)c2)C1)C(=O)C=C(C)C (stereo unspecified)	0.67	-0.4	3.0	-0.2	-2	i	1
Cc1ccc(C(=O)NC(=S)Nc2ccccc2C(F)(F)F)cc1	0.71	-0.2	1.3	-0.2	-1	nt	1
O=C(NC1CCCCC1)C(c1ccc(F)cc1)N(Cc1ccc2c(c1)OCO2)C(=O)c1cnsn1 (stereo unspecified)	0.77	-4.2	1.7	1.0	-9	nt	-8
O=S(=O)(N/N=C/c1ccccc1OCc1ccc(Cl)cc1)c1ccccc1	nt	3.5	nt	1.0	-2	nt	2
CC12CCC(C(=O)NCc3ccccn3)(OC1=O)C2(C)C (stereo unspecified)	0.73	-0.5	-0.5	-7.9	-6	nt	10
Cc1cccc(OCC(=O)NCCCNC(=O)c2ccco2)c1	0.67	0.9	1.7	3.6	-16	i	-5
Oc1cccc(/C=N/NC(=S)NCCN2CCOCC2)c1O	nt	-3.2	nt	12	100*	i	10

Molecules above that contain a nitro group on carbon (three):
SMILES	Ecoli growth	HNF4A DNA FP	UCH37 inh	LANA-H2A inh	ALR H2O2 inh	FGF22 binding	B2AR ag
CCOc1cccc(OCCOc2ccccc2[N+](=O)[O-])c1	0.75	0.0	5.4	1.3	-6	nt	-5
O=C(COc1ccccc1[N+](=O)[O-])NC1CC1	0.66	-0.6	2.7	0.3	-2	nt	1
Nc1ncc2c(n1)CCN(c1ccc([N+](=O)[O-])cc1)C2	0.68	-2.9	7.6	2.9	33	i	9

This is a subset; count on the stated rates, not on these rows.
